Beta2AR agonist = human beta-2 adrenergic receptor agonism by FAP; P07550; Am2.2-beta2AR cells, FAP receptor internalization, flow cytometry; reference of the scale not given here; response, % (no concentration beside the values); 0.43% of 340,000 active;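 active means response above a set limit, near 3 SD of response in nonfluorescent compounds, cut at about 42% in these data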;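 further: stock transfer was 100 nL into about 11 µL; a reference agonist was the positive control; negative values mostly stem from fluorescent compounds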
LANA-H2B inh = blocks KSHV LANA binding to histone H2A/H2B. Q9QR71. cell-free LANA-H2A/H2B peptide, fluorescence polarization. inhibition, % (concentration not given with the values). 0.6% of 320,000 active. AID 2629; in the data active means inhibition mostly above about 10%, no sharp cut-off; inactive means mostly below about 6.7%;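 further: stock transfer was 7.5 nL into about 10 µL; 0% = median of vehicle wells and 100% = median of positive control wells; one replicate is shown; the record names a cut of 25% in any replicate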
Target sequence (Q9QR71 whole entry, looked up): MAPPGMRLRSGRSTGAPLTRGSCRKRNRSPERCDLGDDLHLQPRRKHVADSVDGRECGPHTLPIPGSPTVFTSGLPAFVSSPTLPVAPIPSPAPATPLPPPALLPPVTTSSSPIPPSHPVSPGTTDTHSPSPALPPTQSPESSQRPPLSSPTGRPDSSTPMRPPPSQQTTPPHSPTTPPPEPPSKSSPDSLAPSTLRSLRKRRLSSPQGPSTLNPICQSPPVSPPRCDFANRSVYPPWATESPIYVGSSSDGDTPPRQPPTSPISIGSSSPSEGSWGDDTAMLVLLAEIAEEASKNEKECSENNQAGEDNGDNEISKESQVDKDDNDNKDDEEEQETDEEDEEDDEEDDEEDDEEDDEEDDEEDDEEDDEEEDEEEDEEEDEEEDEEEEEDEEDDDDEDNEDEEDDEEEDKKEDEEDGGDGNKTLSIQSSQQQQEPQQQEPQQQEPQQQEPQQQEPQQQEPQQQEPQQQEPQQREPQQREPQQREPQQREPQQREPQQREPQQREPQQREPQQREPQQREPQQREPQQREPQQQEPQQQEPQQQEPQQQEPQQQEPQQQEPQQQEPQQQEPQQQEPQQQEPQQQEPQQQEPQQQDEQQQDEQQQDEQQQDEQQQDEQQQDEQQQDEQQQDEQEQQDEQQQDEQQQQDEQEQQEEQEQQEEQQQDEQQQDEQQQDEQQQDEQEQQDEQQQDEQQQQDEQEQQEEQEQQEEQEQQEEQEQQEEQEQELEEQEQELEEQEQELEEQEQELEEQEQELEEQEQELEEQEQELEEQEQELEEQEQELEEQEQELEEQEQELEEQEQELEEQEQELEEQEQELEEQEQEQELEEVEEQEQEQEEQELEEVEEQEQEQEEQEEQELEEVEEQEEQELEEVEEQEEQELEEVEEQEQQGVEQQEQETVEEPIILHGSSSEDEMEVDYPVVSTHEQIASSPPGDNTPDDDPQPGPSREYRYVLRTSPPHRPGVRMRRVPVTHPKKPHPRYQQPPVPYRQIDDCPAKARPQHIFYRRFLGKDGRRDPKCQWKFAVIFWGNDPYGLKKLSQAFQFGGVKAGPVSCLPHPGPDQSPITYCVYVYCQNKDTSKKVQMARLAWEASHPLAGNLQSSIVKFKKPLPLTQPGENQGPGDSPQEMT
T cruzi inh = T. cruzi replication inhibition | T. cruzi beta-gal in NIH3T3, luminescence, 90 h | inhibition, % (test concentration not listed) | 1.4% of 300,000 active | AID 1885;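 active means mean inhibition across valid replicates above about 55%, limit read from the data; inconclusive means mean below that limit but half or more replicates reach it; inactive means mean below it, under half of replicates reach it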;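 further: signal also drops with host cell toxicity which is not excluded here; 0% = plate median of DMSO wells and 100% = zero luminescence signal; higher percent means less beta-gal luminescence so fewer parasites; stock transfer was 50 nL into about 50 µL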
Beta cell apopt = beta cell apoptosis inhibition; INS-1E cytokine-induced death, ATP luminescence, 48 h; percent of positive-control rescue, neutral wells zero; protection from apoptosis, % (test concentration not listed); 0.8% of 300,000 active;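 active means all replicates at 75% or more, or half of them and the mean; inconclusive means half reach 75% but not the mean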;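 further: 0% = cytokine-treated negative control wells and 100% = positive control rescue; higher means more ATP so stronger rescue from cytokine killing; wells of about 40 µL received 100 nL stock; the first replicate is given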
RanGTP-Imp inh = disruptors of Ran-importin-beta complex formation – biochemical, FRET, CFP-Ran, YFP-importin-beta, homogeneous, primary screen; cell-free CFP-Ran/YFP-importin-beta FRET ratio; inhibition, % (concentration not given with the values); 1.1% of 300,000 active;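 active means most replicates above 15%; inconclusive means exactly half above 15%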;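 further: 0% = DMSO wells and 100% = Ran loaded with GDP instead of GTP; wells of about 40 µL received 100 nL stock; the first replicate is given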
Calb FLC = C. albicans growth modulation with fluconazole; growth inhibition, % (concentration not given with the values); C. albicans CaCi-2 (fluconazole-resistant clinical isolate) + fluconazole, Alamar Blue growth, 48 h; 0.57% of 300,000 active;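 active means most replicates above 75%; inconclusive means exactly half above 75%; inactive means most below 75%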;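 further: all wells also contain fluconazole at 8 µg/ml as a sub-toxic cotreatment; 0% = median of DMSO wells and 100% = median of geldanamycin control wells; wells of about 8 µL received 7.5 nL stock; the first replicate is given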
UCH37 inh = inhibitors of human deubiquitinating enzyme UCH37. purified proteasome/UCH37, Ub-AMC cleavage fluorescence. inhibition, % (test concentration not listed). 0.33% of 330,000 active. AID 588478;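 active means mean of two replicates above 20%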;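 further: 0% = compound-free wells with enzyme and 100% = wells lacking proteasome; stock transfer was 100 nL into about 20 µL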
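Reagent: Ub-AMC substrate; assay system: Proteasome-associated human UCH37 deubiquitinase; controls: no-proteasome and no-compound wells; read-out: % inhibition of Ub-AMC cleavage fluorescence; timing: 30 min preincubation with enzyme, 25 min cleavage at room temperature; signal: AMC fluorescence from Ub-AMC cleavage, excitation 355 nm, emission 460 nm; buffer or medium: Tris-HCl pH 7.4 plus ovalbumin, ATP-MgCl2, DTT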
A1 inh = inhibitors of the anti-apoptotic protein A1, read as caspase activation; caspase activation, % (test concentration not listed); 0.066% of 330,000 active; MEF A1-2A-BIM cells, Caspase-Glo 3/7 luminescence, 3 h; percent of clofoctol response, vehicle zero;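 active means over half of replicate activation scores above 10%, or exactly half above 10 with the replicate mean above 10; inconclusive means replicate mean below 10 yet half the replicates above 10; inactive means over half of replicates below 10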;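 further: wells of about 30 µL received 50 nL stock; many hits fall short of the cut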
* marks the source's active call; other numbers are inactive results; ? = inconclusive; . = not tested or not shown.

SMILES	Beta2AR agonist	LANA-H2B inh	T cruzi inh	Beta cell apopt	RanGTP-Imp inh	Calb FLC	UCH37 inh	A1 inh
O=C(NC1CCCc2ccccc21)C1CCN(S(=O)(=O)c2cccc(C(F)(F)F)c2)CC1 (configuration not stated)	3.9	-1.7	7.7	8.0	2.8	3.6	4.3	0.3
CCOc1ccccc1CNS(=O)(=O)c1ccc2[nH]c(=O)sc2c1	-2.7	7.0	-28.7	.	0.4	17.7	1.4	-0.2
Cc1cccc(/C=C(\C(=O)O)c2ccc(S(=O)(=O)N3CCCC3)s2)c1	9.8	-3.2	.	-4.1	.	.	2.2	-1.2
CSc1ccccc1NC(=O)CSc1n[nH]c(C)c1[N+](=O)[O-]	4.5	0.5	-14.4	-5.7	-2.1	-1.9	3.2	-0.7
O=C1OC(C(=O)NCc2ccccc2)Cc2ccccc21 (configuration not stated)	-9.5	5.2	.	-1.9	4.2	-9.5	-1.6	-0.4
O=C(CNC(=O)c1ccccc1Cl)c1ccccc1	35.7	0.2	-13.4	0.9	-2.0	-6.5	3.8	-8.3
O=C(CCc1nc2ccccc2c(=O)[nH]1)Nc1ccccc1N1CCCC1	-0.1	-8.6	-5.8	.	-1.7	-5.4	2.9	0.0
Cc1ccccc1-n1c(SCc2csc(Nc3ccccc3)n2)nnc1-c1cccnc1	-8.8	-0.1	0.3	11.1	3.5	?	3.2	-0.5
O=C(COc1ccc2oc(-c3ccccc3)cc(=O)c2c1)NCc1ccco1	-6.9	2.5	-12.7	-1.9	4.1	0.4	-11.1	-1.7
Fc1cccc(CNC2CCN(CCc3ccccc3)CC2)c1	5.5	-4.3	15.8	-1.2	0.4	0.5	1.4	0.1
CCC(CC)c1nnc(NC(=O)C23CC4CC(CC(NC(C)=O)(C4)C2)C3)s1	-3.0	1.0	7.5	1.0	2.5	-7.8	2.3	0.6
COc1ccc(N2Cc3ccccc3/C2=N\C(=O)Nc2ccccc2)cc1	-1.6	1.2	10.4	-4.6	17.3*	-31.2	.	-0.8
CCC(C)NC(=O)CC1Oc2ccc(C)cc2NC1=O (configuration not stated)	1.9	1.8	3.7	-5.1	1.6	-0.8	1.5	-0.4
O=C(Oc1ccccc1Cl)c1ccc2c(=O)n3c(nc2c1)CCC3	-3.9	0.7	-12.4	-5.1	.	0.0	3.2	0.2
S=c1[nH]nc(C2CCCCC2)n1/N=C/c1cccc(Br)c1	-0.3	3.0	2.1	.	-0.3	8.5	.	0.6
CCc1ccc(NC(=O)C2CCCN2C(=O)NC2CCCCC2)cc1 (configuration not stated)	4.5	9.0	-1.1	-2.5	2.8	3.7	1.9	0.1
CN1CCN(C(=S)NC(=O)c2ccc(S(=O)(=O)N3CCOCC3)cc2)CC1	-13.3	1.5	-5.0	-11.0	1.5	-2.9	4.2	0.2
Cc1ccc(C)c(OCCC(=O)OCC(=O)Nc2cc(S(=O)(=O)N3CCOCC3)ccc2C)c1	-2.3	1.7	-16.4	-0.7	?	-0.7	0.3	-0.5
CCOc1ccc(-n2c(Cc3ccccc3)nnc2SCc2c(C)noc2C)cc1	5.0	-1.3	21.4	0.5	-1.5	-3.9	5.6	-0.4
Cn1c(N)c(S(=O)(=O)N2CCN(Cc3ccccc3)CC2)c(=O)n(C)c1=O	0.0	0.8	1.0	-7.3	-6.5	-1.5	3.0	1.4
COc1cc(CC(=O)N2CCN(C(=O)C3CCCO3)CC2)cc(OC)c1OC (configuration not stated)	5.8	3.5	.	-5.7	.	.	1.5	1.3
C=CCn1c(C(C)NC(=O)C(C)(C)C)nc2ccccc21 (configuration not stated)	-3.0	-4.1	-4.2	.	8.4	-16.1	0.9	0.8
Cn1c(=O)[nH]c(=O)c2c1nc(N1CCCCCC1)n2CCN1CCCCCC1	-8.2	-1.7	1.1	3.1	4.9	-16.4	4.9	0.3
Cc1c(C(=O)Oc2cccc3ccccc23)cnn1-c1ccccc1	-4.4	-0.6	-4.7	-5.0	-1.9	-2.8	-5.4	0.8
CCc1ccc2oc(=O)cc(CN3CCN(c4ccc(F)cc4)CC3)c2c1	8.4	3.1	29.9	12.0	-2.0	-5.7	-2.0	0.0
CSc1cccc(-c2nnc(NC(=O)c3cccc(N4C(=O)CCC4=O)c3)o2)c1	-10.2	.	-9.7	-3.1	7.9	4.3	3.1	0.9
CC(C)(C)OC(=O)N/N=C\C=C\c1ccc2c(c1)OCO2	12.8	2.4	-13.8	-10.7	3.4	-7.9	.	-0.5
COc1ccccc1NC(=O)/C=C/C(N)=O	-4.0	-0.8	1.8	-7.5	0.2	-10.9	-0.1	0.2
CN(C)CCNC(=O)c1ccccc1-c1cc2ccccc2c(=O)o1	-9.8	-0.9	-15.9	-0.1	4.5	5.6	-26.2	0.1
Cc1ccc(CNC(=O)CCS(=O)(=O)c2cc3c(cc2Cl)NC(=O)CO3)cc1	-4.6	3.5	-11.7	.	1.8	-6.6	-0.1	0.3
Cc1ccc2c(c1)nnn2C1CCN(C(=O)NC23CC4CC(CC(C4)C2)C3)CC1	.	.	0.0	.	-1.2	-4.4	-0.7	.
O=C(Nc1ccccc1F)N(CCCN1CCOCC1)Cc1cc2cc3c(cc2[nH]c1=O)OCCO3	8.3	-6.2	-6.3	-0.2	0.2	10.0	-20.6	0.7
CCC(C)(C)NC(=O)CN(Cc1ccc2c(c1)OCO2)C(=O)CCC(=O)Nc1cc(C)ccn1	-2.8	1.6	15.4	-3.9	-0.3	3.1	5.6	-0.2
CSc1nc2ccccc2cc1/C=C(\C#N)c1ccc(Cl)cc1Cl	1.9	4.3	4.9	9.5	0.1	0.0	-7.0	1.2
CCOC(=O)N1CCC(NC(=O)Cn2ncc3ccccc32)CC1	-1.7	-3.2	-10.7	-2.5	-2.4	-12.3	4.0	0.2
CNC(=O)CSc1nnc(-c2ccccn2)n1Cc1ccco1	-9.1	1.8	-14.8	-2.0	?	4.3	0.2	0.0
Cc1c(NC(=O)OCCNC(=O)COc2c(Cl)cccc2Cl)sc(=S)n1C	-26.0	-5.9	-3.0	-7.2	-2.3	1.2	2.2	0.4
O=C(Cn1nnc(-c2ccccc2)n1)NNC(=O)c1ccco1	4.2	-0.6	-10.8	0.0	6.7	9.1	0.5	-0.4
CCCCCC(=O)OC(CN1CCCCCC1)CN1CCCC1=O (configuration not stated)	-4.7	1.3	-8.2	-8.4	-2.3	-1.1	4.0	-0.6
COc1ccccc1CCc1nnc(CCC(=O)NCCOc2cccnc2)o1	1.3	2.2	-12.0	2.8	-6.1	-17.1	3.9	0.0
Cc1cccc(OC(C)C(=O)Nc2nccs2)c1 (configuration not stated)	4.7	-1.0	-4.0	-4.9	7.0	7.1	2.4	0.0
O=C(Nc1ccc(F)cc1)c1cc(-c2ccncc2)nc2c(Cl)cccc12	1.4	1.2	19.8	3.7	2.9	-7.7	-0.8	0.7
CCOC(=O)c1nnn(-c2nonc2N)c1COc1c(C=O)cccc1OC	15.1	-1.9	0.3	2.3	-4.5	-1.1	-1.2	1.3
O=C(c1ccc(Br)cc1)c1coc2ccc(O)cc12	-5.8	2.1	-1.1	-12.1	1.5	-1.8	1.8	-3.9
COc1ccc(S(=O)(=O)NC(C)C(=O)Nc2ccc3c(c2)OCCO3)cc1OC (configuration not stated)	-0.8	-1.1	0.2	-4.8	2.3	16.0	2.4	-0.3
Fc1ccc(-c2cc3nc4c(c(N5CCOCC5)n3n2)CCCC4)cc1	12.2	5.8	26.8	12.0	0.4	-3.2	-1.7	-0.9
CCOc1ccc(Cl)cc1Nc1nc(NCCO)nc(N2CCCC2)n1	-7.8	4.2	9.0	8.4	-5.8	2.6	0.9	-0.5
O=C(CCNS(=O)(=O)c1ccc(Cl)cc1)OCC(=O)c1ccc[nH]1	-0.3	-0.1	-26.9	-5.5	4.5	-4.2	5.5	0.5
CCN(CC)CCCNC(=O)CCc1ccccc1	-3.7	3.4	.	-8.0	.	4.6	1.7	1.5
COc1ccccc1NC(=O)CSc1nnc(C)n1CCc1ccccc1	-8.7	4.5	6.2	-6.6	-1.2	13.6	2.0	0.2
(list continues)
SMILES	Beta2AR agonist	LANA-H2B inh	T cruzi inh	Beta cell apopt	RanGTP-Imp inh	Calb FLC	UCH37 inh	A1 inh
Cc1ccc(S(=O)(=O)N2CCCCC2)cc1C(=O)Nc1ccc2cn[nH]c2c1	-7.3	-4.8	9.9	0.2	1.4	-0.6	-0.6	-0.7
COC(=O)c1[nH]c2cccc(Cl)c2c1NC(=O)CN1CCCCC1C (configuration not stated)	-5.9	-4.4	-1.5	.	8.2	2.6	4.0	1.7
Cc1ccc(NC(=S)N(CCCN2CCC(C)CC2)Cc2ccco2)cc1	-1.8	-1.9	5.6	2.0	?	-8.8	4.9	-0.7
COC(=O)CSc1nnc(CNC(=O)Cc2ccccc2)n1C	2.9	2.5	-7.5	0.8	0.3	-2.9	0.9	-0.2
O=S(=O)(NCc1cccnc1)c1ccc(Cl)cc1	-1.7	1.6	-15.0	-2.5	-3.0	-4.5	2.2	0.2
Cn1c(=O)n(C)c2cc(/C=N/NC(=O)c3cccc(Br)c3)ccc21	10.0	-5.5	-9.8	-3.0	2.4	5.1	.	0.5
COC(=O)c1ccccc1NC(=O)CSc1n[nH]c(C)n1	4.1	1.4	-1.5	0.6	-2.1	-6.1	-2.6	0.9
O=C(Cc1cccs1)NCc1cn2ccccc2n1	8.8	-0.1	-19.4	-12.1	?	-1.1	-0.7	0.0
CC(=O)c1cc(CN2C(=O)CCC2=O)cs1	9.3	-7.2	-20.8	-4.0	1.6	?	6.8	-0.3
CN(C)CCN(C(=O)c1ccc(S(=O)(=O)N(C)CC2CCCO2)cc1)c1nc2cc3c(cc2s1)OCO3 (configuration not stated)	-7.4	-2.1	29.1	0.2	1.3	0.1	2.6	0.8
COC(=O)C1=C(C)OC(N)=C(C#N)C1c1ccsc1 (configuration not stated)	1.2	-2.8	-13.9	.	2.9	23.9	4.3	1.6
COc1ccc(/C=C2\SC(N3CCc4ccccc4C3)=NC2=O)cc1	36.6	5.1	-11.2	-9.1	1.6	47.3	1.6	-1.0
O=C(Nc1cccc(O)c1)c1cc(S(=O)(=O)N2CCCC2)ccc1Cl	-2.7	-2.5	2.1	8.1	4.5	1.0	2.0	0.3
O=C(CNC(=O)OCc1ccccc1)Oc1cc2oc(=O)cc(-c3ccccc3)c2cc1Cl	.	22.2*	.	-7.1	.	.	-76.8	-0.2
COC(=O)CC1C(=O)NCCN1C(=O)OC(C)(C)C (configuration not stated)	7.1	11.8	-9.7	-4.4	-4.8	2.1	6.5	0.3
O=C(C1CC1)N1CCN=C1SCc1ccccc1	-18.1	-0.4	-4.4	0.3	-0.5	-0.9	5.6	1.1
COc1cc(CNC(=O)CCCC(=O)c2ccccc2)cc(OC)c1OC	6.8	-1.3	0.3	-4.8	7.3	7.5	3.5	-0.7

High-throughput results as filed in PubChem.
